ugtP null kill: growth inhibition of S. aureus ugtP deletion strain | actives 0.54% (n = 330,000) | AID 1259309 | growth inhibition, % (no concentration beside the values) | S. aureus RN4220 ugtP deletion, OD600 growth, 16 h; some inactives read as strong as hits;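 active = z-score under -3 and OD600 up to 0.15 on both plates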;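 note: plate controls were untreated wells for no effect and antibiotic for full effect; wells of about 80 µL received 100 nL stock; the first replicate is given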
Mtb hypoxia inh: reduces hypoxia-regulated biosensor signal in M. tuberculosis | actives 0.1% (n = 300,000) | fluorescence inhibition, % (no concentration beside the values) | M. tuberculosis hypoxia-regulated fluorescent reporter, fluorescence | AID 1159583;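 active = 35 to 45% if threefold the growth effect, above 45% if 1.5-fold the growth effect; inactive = the rest, general growth blockers included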;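 note: wells of about 50 µL received 100 nL stock; 0% = vehicle wells and 100% = reference inhibitor wells; whole bacteria with a GFP reporter of the hypoxia response; strong numbers were not always called active; many hits fall short of the cut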
BJeLR lethal: BJeLR cell viability loss; BJeLR (HRASV12) viability, CellTiter-Glo ATP luminescence, 48 h; reference of the scale not given here; inhibition, % (no concentration beside the values); actives 0.17% (n = 300,000); AID 1554;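 active = replicate mean above 50%; inconclusive = above 50% but judged a plate artefact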;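 note: 50 nL library stock added to about 25 µL; numbers are from one replicate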
PrP UTR inh: suppresses PrP 5' UTR mRNA reporter expression | cell-based PrP 5' UTR mRNA reporter, plate reader | inhibition, % (concentration not given with the values) | actives 0.35% (n = 340,000) | AID 488862;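 active = every replicate at 50% or more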;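 note: 0 = median of the neutral control wells; tested in H4 reporter cells; numbers are from one replicate; inactives centre near -14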
Autofluor counter: compound fluorescence in toxin protease inhibitor counterscreen. compound autofluorescence counterscreen, microsphere flow cytometry; hits give high values. fluorescence intensity (concentration not given with the values). actives 3.1% (n = 360,000);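 active = at least 3 SD above the mean of all compounds, about 16000 in these data; inconclusive = too few beads counted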;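 note: 100 nL of 1 mM stock went into each well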
RN4220 kill: S. aureus RN4220 growth inhibition; actives 0.33% (n = 330,000); OD600, 16 h; inhibition, % (concentration not given with the values);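 active = z-score of -3 or lower and OD600 up to 0.18 on both plates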;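 note: plate controls were untreated cells for no effect and reference antibiotic for full effect; stock transfer was 100 nL into about 80 µL; one replicate is shown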
Mtb hypoxia inh growth: second read-out of Mtb hypoxia inh, no call of its own (marks repeat the call); growth inhibition, %; measured here: M. tuberculosis growth (absorbance);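 0% = vehicle and 100% = reference antibiotic; read after six days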
Numbers without * were called inactive; ? = inconclusive; / = not tested or not shown.

SMILES	ugtP null kill	Mtb hypoxia inh	Mtb hypoxia inh growth	BJeLR lethal	PrP UTR inh	Autofluor counter	RN4220 kill
O=C(N/N=C/c1ccc[nH]1)c1ccccc1O	/	/	/	-3	-21	3291	/
O=C(O)CCCCCCNS(=O)(=O)c1ccccc1	3	17	21	2	-73	10950	4.8
O=c1c(O)c(-c2ccc3c(c2)OCO3)oc2ccccc12	6	/	/	0	-51	3485	4.6
CSCCC1Nc2ccc(S(=O)(=O)N3CCOCC3)cc2NC1=O (stereo not drawn)	7	-6	12	/	-15	4114	6.9
O=C(COC(=O)COc1cccc(C(F)(F)F)c1)NC1CCCC1	8	11	-3	-3	-25	6151	3.2
COc1cc(C(=O)OCC(=O)Nc2cc(-c3cc(C)c(C)cc3C)nn2-c2ccccc2)cc(OC)c1OC	12	0	-3	0	-14	2470	-3.6
Nc1c(C(=O)NC2CCCC2)c2nc3ccccc3nc2n1N	-2	/	/	-3	-19	4248	-1.1
c1ccc(CCN2CCC(N3CCN(c4ccccc4)CC3)CC2)cc1	-1	-2	9	0	-15	11763	2.8
O=C(Nc1nc2c(s1)CN(Cc1ccccc1)CC2)C1CCC1	2	-1	-1	3	-26	6373	7.3
Cc1c(OC(C)C(=O)NCc2ccccn2)ccc2c3c(c(=O)oc12)CCCC3 (stereo not drawn)	5	8	12	-3	-17	5377	6.5

Part of the list above, bar-delimited:
SMILES | ugtP null kill | Mtb hypoxia inh | Mtb hypoxia inh growth | BJeLR lethal | PrP UTR inh | Autofluor counter | RN4220 kill
O=C(COC(=O)COc1cccc(C(F)(F)F)c1)NC1CCCC1 | 8 | 11 | -3 | -3 | -25 | 6151 | 3.2
COc1cc(C(=O)OCC(=O)Nc2cc(-c3cc(C)c(C)cc3C)nn2-c2ccccc2)cc(OC)c1OC | 12 | 0 | -3 | 0 | -14 | 2470 | -3.6
Nc1c(C(=O)NC2CCCC2)c2nc3ccccc3nc2n1N | -2 | / | / | -3 | -19 | 4248 | -1.1
c1ccc(CCN2CCC(N3CCN(c4ccccc4)CC3)CC2)cc1 | -1 | -2 | 9 | 0 | -15 | 11763 | 2.8
O=C(Nc1nc2c(s1)CN(Cc1ccccc1)CC2)C1CCC1 | 2 | -1 | -1 | 3 | -26 | 6373 | 7.3

(listing goes on)
SMILES	ugtP null kill	Mtb hypoxia inh	Mtb hypoxia inh growth	BJeLR lethal	PrP UTR inh	Autofluor counter	RN4220 kill
CCOC(=O)c1cn2nc(-c3ccc(OCC)cc3)cc2nc1C1CCN(C(=O)OC(C)(C)C)CC1	15	-2	8	3	-29	9697	-2.1
CN1C(=O)/C(=C/c2cc(C(C)(C)C)c(O)c(C(C)(C)C)c2)NC1=S	-17	-3	-10	-12	-16	2426	-4.6
Cc1ccc(N(CCCCN2C(=O)c3ccccc3C2=O)C(=O)c2ccc(Cl)s2)cc1	9	14	1	10	-32	1922	3.7
CCSC(C)CC1C/C(=N/O)c2c(C)noc2C1 (stereo not drawn)	/	/	/	-6	-17	10078	/
CNC(=O)Oc1ccc(N(C)C)cc1C(C)C	/	/	/	-3	-17	4747	/
CCC(CC)C(=O)c1c[nH]c(C(=O)NN)c1	7	16	7	2	-25	3389	1.2
Cn1nc(-c2ccccc2)c2nc3ccccc3nc21	-8	9	-2	-13	-23	3236	-8.0
CCCCCCNS(=O)(=O)c1ccc(NC(=O)C2CCCO2)cc1 (stereo not drawn)	7	16	3	8	-4	2684	3.0
CCOC(=O)c1cnn(-c2nc(SC)nc3sc4c(c23)CCCC4)c1N	100*	22	6	4	-7	3751	100*
COc1cccc(S(=O)(=O)NCc2ccc(C(=O)Nc3ccc(Cl)cc3)cc2)c1	-3	16	3	10	-15	2452	-0.1
CC1Cc2ccccc2N1C1=CC(=O)CC(C)(C)C1 (stereo not drawn)	9	-1	-2	-2	-26	2443	2.1
CN1CCN(CCNC(=O)Nc2ccccc2C(F)(F)F)CC1	7	/	/	6	-10	2129	4.8
Cc1cc(C)c2c(N)c(S(=O)(=O)Cc3ccccc3)sc2n1	-5	11	5	-13	-22	3023	-6.7
CCCCCCCCC=CCCCCCCCC(=O)NCCc1ccc(O)c(O)c1	12	1	-2	/	/	/	-0.8
CCCN(CCC)CCCNC(=O)CS(=O)Cc1nc(-c2ccc(OC)c(OC)c2)oc1C (stereo not drawn)	-1	3	0	4	-15	12189	-0.1
C[n+]1ccc(/C=C/c2c[nH]c3ccc(F)cc23)cc1	-1	-19	5	14	-20	5054	0.2
N=c1c(C(=O)NCc2ccco2)cc2c(=O)n3ccccc3nc2n1Cc1ccc(Cl)cc1	3	11	0	-1	-3	?	6.0
COc1ccc(N2CCN(C(CNC(=O)C(=O)NCCCn3ccnc3)c3ccco3)CC2)cc1 (stereo not drawn)	-9	-7	3	10	-12	5650	-5.0
COc1ccc2oc(C(=O)OCC(=O)N3CCCCC3C)c(C)c2c1 (stereo not drawn)	5	10	3	/	-50	7875	-1.5
Nc1ccc(OCCc2ccccc2)cc1	7	-4	6	-2	-21	3301	0.8
CCN(CC)CCNC(=O)Cn1cnc2sc(C)c(S(=O)(=O)N3CCN(c4ncccn4)CC3)c2c1=O	1	-1	0	3	-2	3782	0.3
CCOC(=O)CN1C(=O)C2(OCCCO2)c2ccccc21	8	10	3	1	-23	10049	7.1
O=c1[nH]nc(-c2ccc([N+](=O)[O-])o2)c(=O)[nH]1	17	25	19	/	-17	4047	6.2
CCCCCCCCCCCCCCCC(=O)OC(CC(=O)O)C[N+](C)(C)C (stereo not drawn)	99*	1	10	/	-55	4045	42
CCCn1nnc(NC(=S)NC(=O)Cc2ccccc2)n1	0	9	4	5	-19	4284	7.2
CN(C)S(=O)(=O)c1cccc(-c2nnc(SCc3cc(Cl)cc4c3OCOC4)n2N)c1	19	/	/	3	2	4808	-2.8
O=C(O)C1C2C=CC(C2)C1C(=O)Nc1ccc(Cl)c(Cl)c1 (stereo not drawn)	2	0	12	-17	-22	4078	3.4
CCOC(=O)c1ccc(NC(=O)COc2ccc(S(=O)(=O)NC(C)CC)cc2)cc1 (stereo not drawn)	7	6	7	-3	-25	9904	1.7
O=C(Cn1nnc(-c2ccccc2F)n1)Nc1ccc(C(=O)N2CCOCC2)cc1	2	/	/	-5	-18	4650	1.6
COc1ccc(N(C(=O)c2ccco2)C(C(=O)NC2CCCC2)c2ccc(OC)c(OC)c2)cc1 (stereo not drawn)	7	-1	4	-11	-32	3947	1.3
CCN(C(=O)COC(=O)c1ccc2ccccc2c1)c1c(N)n(Cc2ccccc2)c(=O)[nH]c1=O	3	2	1	/	-10	8567	3.9
Cc1ccc(-c2nn(-c3ccccc3)cc2/C=N/NC(=O)CSc2nnc(C)n2-c2ccccc2)cc1	/	/	/	1	-51	3461	/
COc1ccccc1NC(=S)NNC(=O)c1nn(C)c(C)c1Cl	2	/	/	-5	-11	4194	5.9
N#Cc1ccccc1Cn1cc(C(=O)c2ccco2)c2ccccc21	-10	23	-1	-6	15	3281	5.7
CCOC(=O)C1CCCN(C(=O)/C=C/c2ccc([N+](=O)[O-])cc2)C1 (stereo not drawn)	9	6	5	-12	3	2651	5.3
Cc1cc(C)cc(N(CC(=O)NC2CCCC2)C(=O)CNC(=O)c2cccs2)c1	6	-3	6	-3	-16	3436	0.8
COc1cccc(NC(=O)CN(C)C(=O)c2ccccn2)c1	8	8	1	/	-31	?	0.1
Cc1cc2c(cc1[N+](=O)[O-])NC(CNC(C)C)CC2 (stereo not drawn)	8	0	-5	5	-12	3686	2.1
COc1ccccc1/C=N/NC(=O)c1nnn(-c2nonc2N)c1-c1cccs1	/	/	/	-3	6	5332	/
CCN(CC(=O)Nc1c(F)cccc1F)C(=O)CN1C(=O)NC2(CCCC2)C1=O	3	8	9	1	-4	/	1.5
COc1ccccc1C(=O)NC(=S)Nc1cc(C(=O)O)ccc1C	1	8	5	3	-9	4457	13
CCN(CC(=O)NCc1cccs1)C(=O)c1ccc(-c2ccccc2F)o1	4	-2	6	/	-26	3615	-4.3
Cc1cc(=O)oc(C)c1C(=O)NNC(=O)C1(C)CC1Br (stereo not drawn)	6	-6	3	4	-4	3434	2.1
Cc1ccc(CN(C(=O)c2cc3ccccc3oc2=O)C2CCS(=O)(=O)C2)cc1 (stereo not drawn)	2	3	5	-2	-63	21783*	6.0
COc1ccc(Cl)cc1NC(=S)NN1CCOCC1	3	4	13	1	14	4615	2.5
COc1ccccc1NC(=O)CN1CCN(Cc2ccccc2)CC1	9	4	2	-1	8	16872*	3.2
Cc1ccc(NC(=O)CN2CCc3ccccc3C2)cc1S(=O)(=O)N1CCOCC1	-6	-3	5	4	-7	3039	-0.4
CC(=O)Nc1ccc(S(=O)(=O)Nc2nc3ccccc3nc2Sc2nncn2C)cc1	0	2	-2	4	-24	12587	-0.5
Cc1cccc(C(=O)NNC(=O)c2csc(N3CCOCC3)n2)c1C	4	4	6	-5	-12	5006	-6.1
CCn1nc(C(=O)N[C@@H](CCSC)c2nc3ccccc3[nH]2)c2ccccc2c1=O	/	/	/	-9	-21	3579	/

Later entries.
SMILES	ugtP null kill	Mtb hypoxia inh	Mtb hypoxia inh growth	BJeLR lethal	PrP UTR inh	Autofluor counter	RN4220 kill
COc1ccc(C(c2nnnn2C2CCCCC2)N2CCN(c3ccccc3F)CC2)cc1 (stereo not drawn)	18	/	/	5	-20	2592	-7.2
CCCCC(=O)NC(Nc1ccc(C)cn1)(C(=O)OCC)C(F)(F)F (stereo not drawn)	2	2	10	4	-11	2950	-1.8
CCOc1ccc(NC(=O)CS(=O)CC(=O)NC2CCCc3ccccc32)cc1 (stereo not drawn)	2	5	-1	0	-11	9016	1.6
CC1=NNC(=O)C1CCC(=O)N/N=C\c1cccc(Cl)c1 (stereo not drawn)	/	/	/	-3	-16	4557	/
COc1cc2c(cc1OC)C(C)N(C(=O)CCNC(=O)c1ccccc1)CC2 (stereo not drawn)	9	4	-6	8	-23	4342	3.2
CCOCCOc1cc(NCc2ccccc2)c2ncn(C(C)C)c2c1	2	5	17	/	-12	4491	4.4
c1ccc(C2c3c(ccc4ccccc34)Oc3ncn4nc(-c5ccco5)nc4c32)cc1 (stereo not drawn)	20	6	10	-8	-61	10398	23
CSc1ccc(CN(C)C(=O)CSCC(=O)Nc2cc(C)on2)cc1	5	-1	-8	-8	9	4506	0.9
CC(=O)Nc1ccc(S(=O)(=O)NCCc2csc(C)n2)cc1	-4	-3	2	-8	-2	9473	-1.6
C=CCSc1nnc2c(n1)[nH]c1c(C)cccc12	-5	6	11	1	-98	6183	5.3
O=C(CCCn1c(SCC(=O)NCCc2ccccc2)nc2ccccc2c1=O)NCC1CCCO1 (stereo not drawn)	6	6	-4	1	-17	3293	9.0
O=C(/C=C(\O)c1ccccc1)C(=O)NNC(=O)c1ccccc1[N+](=O)[O-]	/	/	/	2	-18	5553	/
Cc1ccccc1Nc1nnc(C)c(=O)[nH]1	-6	-8	7	-1	4	6649	4.4
Cc1cc(C)nc(N(C#N)Cc2cccc3ccccc23)n1	7	/	/	-2	1	/	-2.0
O=C(CNS(=O)(=O)c1ccccc1)NCC(=O)OCc1ccc(Br)cc1	3	-2	-16	0	12	4012	9.6
COc1ccccc1-n1c(SCC(=O)N2CCc3ccccc32)nc2c(c1=O)SCC2	-7	8	8	-3	-15	7010	-14
CC(=O)C1=C(C)NC(C)=C(C(C)=O)C1c1cn(-c2ccccc2)nc1-c1cccs1	-3	1	6	1	-6	3079	-6.4
CN(CCc1ccccc1)C(=O)c1cc(COc2cccc(C(F)(F)F)c2)on1	-18	9	0	-1	-22	5446	5.4
Cc1cc(S(=O)(=O)N2CCCC2C(=O)N2CCOCC2)c(C)cc1Cl (stereo not drawn)	4	3	2	-3	-22	?	4.2
O=C(CC1SC(N2CCCC2)=NC1=O)Nc1ccc(C(=O)NCCc2ccc(F)cc2)cc1 (stereo not drawn)	10	6	-6	13	-20	6309	1.2
COc1cc(C)ccc1OCc1cc(C(=O)N(C)CCCN2CCOCC2)no1	1	3	-6	14	-46	4445	0.8
CC1CN(S(=O)(=O)c2cccc(C(=O)Nc3ccccc3N3CCCC3)c2)CC(C)O1 (stereo not drawn)	10	-9	-11	-4	-5	3958	5.7

Profiles as entered above. Order of screens: ugtP null kill	Mtb hypoxia inh	Mtb hypoxia inh growth	BJeLR lethal	PrP UTR inh	Autofluor counter	RN4220 kill
CC1=NNC(=O)C1CCC(=O)N/N=C\c1cccc(Cl)c1 (stereo not drawn) in the list: /	/	/	-3	-16	4557	/
CCOCCOc1cc(NCc2ccccc2)c2ncn(C(C)C)c2c1 in the list: 2	5	17	/	-12	4491	4.4

Assay outcomes deposited in PubChem BioAssay by several laboratories.
